Source: PubChem BioAssay (National Center for Advancing Translational Sciences (NCATS))
HPGD inh: blocks human HPGD enzyme activity; P15428; purified HPGD, NADH fluorescence kinetic, PGE2 substrate; Potency, µM, without a hit: at the top dose activity change, negative = inhibition, actives largely listed as inhibitors; 150,000 compounds, 4.3% hits; AID 894; active = well fitted inhibition curve with a large enough effect (not every such curve was filed as active); inconclusive = small, poorly fitted or top-dose-only effect, or another doubt; inactive = no such curve, though single readings can be large or run the other way;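 note: top concentration of the series not given in the record; plate controls included wells without enzyme; inactives centre near -10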
Target sequence (P15428 whole entry, looked up): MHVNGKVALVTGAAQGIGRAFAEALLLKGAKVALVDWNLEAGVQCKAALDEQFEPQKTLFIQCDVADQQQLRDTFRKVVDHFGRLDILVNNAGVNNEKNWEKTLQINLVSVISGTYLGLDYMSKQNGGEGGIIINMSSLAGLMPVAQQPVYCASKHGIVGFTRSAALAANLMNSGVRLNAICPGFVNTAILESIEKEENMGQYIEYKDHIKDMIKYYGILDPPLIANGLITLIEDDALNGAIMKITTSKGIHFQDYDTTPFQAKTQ
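20 nM HPGD preincubated 15 min at room temperature with compound in 50 mM Tris-HCl pH 8, 0.01% Tween 20. Started with 1 mM NAD+ and 30 uM prostaglandin E2; NADH fluorescence (360/450 nm) read 5 times over 30-s intervals, last minus first.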
* = called active by the depositor; ? = inconclusive; & = joins results of further samples; ! = a repeat was not active. % is set by controls: 0 for no effect and ±100 for the full control effect; potency is the fitted concentration of half-maximal effect. This is a subset (hit frequency here may not be typical).

HPGD inh	structure
-21%	O=C(NC1CC1)C1CCN(c2ccc(S(=O)(=O)N3CCOCC3)cc2)CC1
-7%	CCCCC(CC)CNC(=O)CCS(=O)(=O)c1cccc2nonc12 (centres undefined)
-21%	CC(C)n1nc(C(=O)Oc2cccc(Cl)c2Cl)c2ccccc2c1=O
-6%	O=C(OCc1ccc([N+](=O)[O-])cc1)c1ccc(N2CCCC2)c([N+](=O)[O-])c1
-12%	O=C(NCC1CCCO1)C(c1cccs1)N(Cc1cccs1)C(=O)c1ccc(-c2ccccc2)[nH]1 (centres undefined)
-7%	CC(O)c1nc2ccccc2n1Cc1nnc(-c2ccc(Cl)cc2)o1 (centres undefined)
-12%	CCOc1ccc2[nH]c(C)c(CN3CCOCC3)c(=O)c2c1
-2%	Cc1ccc(Cl)cc1NS(=O)(=O)c1c(C)[nH]c(=O)[nH]c1=O
-18%	COc1ccc(NC(=O)CCn2nc(C)cc2C)cc1
0%	COc1ccc(CNCC(O)(c2ccc(Cl)cc2)c2ccc(Cl)cc2)cc1OC
3%	COc1ccc(NC(=O)COC(=O)CNS(=O)(=O)c2ccc(C)cc2)c(OC)c1
?	CCCCc1c(C)c2ccc(OC)c(/C(C)=N\O)c2oc1=O
-25%	COc1ccc(-c2nn(CCC(=O)O)cc2/C=C/C(=O)O)cc1[N+](=O)[O-]
-22%	COc1ccc(Oc2coc3cc(OCC(=O)N4CCCCC4)ccc3c2=O)cc1
-15%	Cc1ccc(C)c2[nH]c(=O)c(CCNC(=O)C(C)C)cc12
-6%	CCOC(=O)C1CCN(C(=O)CCS(=O)(=O)c2ccc3c(c2)CCN3C(C)=O)CC1
-7%	CC1(C)CC(N(Cc2ccco2)C(=O)Cc2ccccc2)CCO1 (centres undefined)
-8%	Cc1ccc(NC(=O)c2snc3c(=O)[nH]cnc23)cc1C
?	COC(=O)C1=C(C)NC2=C(C(=O)C(C(=O)OC)C(c3ccc(OC)cc3)C2)C1c1ccccn1 (centres undefined)
-6%	CCn1cc(CNC(=O)CCc2ccc(OC)cc2)cn1
-14%	NC(=O)c1c(NC(=O)Cc2cccs2)sc2c1CCC2
-12%	Cn1c(CSCc2ccccc2Cl)nnc1SCC(=O)Nc1nccs1
-7%	Cc1ccc(OCC(O)CN2CCN(c3ccccc3)CC2)cc1 (centres undefined)
0%	CCOc1ccc(CN(C(=O)c2ccco2)C2CCS(=O)(=O)C2)cc1 (centres undefined)

A few values from above:
HPGD inh, CCOC(=O)C1CCN(C(=O)CCS(=O)(=O)c2ccc3c(c2)CCN3C(C)=O)CC1 : -6%
HPGD inh, CCn1cc(CNC(=O)CCc2ccc(OC)cc2)cn1 : -6%

Next section
HPGD inh	structure
-7%	CC(OC(=O)c1cc(Cl)ccc1[N+](=O)[O-])C(=O)NC(C)c1ccc(F)cc1 (centres undefined)
-8%	Nc1ccc(N=Nc2c(S(=O)(=O)O)cc3ccccc3c2S(=O)(=O)O)cc1
-24%	CC(C)(C)c1ccc(NC(=O)COC(=O)c2ccc([N+](=O)[O-])s2)cc1
?	COc1cccc(Nc2nc(N)nc(-c3oc4ccccc4c3C)n2)c1
2%	Cc1ccc(S(=O)(=O)NNC(=O)c2cccs2)c(C)c1
-9%	O=C1CC(c2cccc(Cl)c2)CC(O)=C1C=NC1CCCC1 (centres undefined)
?	COc1ccc2[nH]c(=O)c(CN(C(=O)c3ccncc3)C(C)C)cc2c1
-2%	CCOC(=O)N1CCN(C(=O)COc2cc(=O)n(C)c3ccccc23)CC1
-18%	CCOC(=O)c1cnc(-c2ccccc2)nc1Oc1ccc(C)cc1
-15%	CC(NC(=O)COc1ccc(Br)cc1)C(=O)O (centres undefined)
?	Cc1ccc(S(=O)(=O)Nc2ccccc2C(=O)O)c(C)c1
-8%	COc1cccc(OC)c1C(=O)NC(=S)Nc1ccc2oc(=O)ccc2c1
-13%	Cc1ccc(S(=O)(=O)NCC(=O)OCC(=O)c2cccs2)cc1
-11%	COc1ccc(OC)c(NC(=O)CCC(=O)Nc2nnc(C(F)(F)F)s2)c1
-11%	CC1CCCC(NC(=O)COC(=O)COc2ccc(Cl)cc2)C1C (centres undefined)
18µM*	O=C1CN(C(=O)CSc2nc(-c3ccccc3)cs2)c2ccccc2N1
16µM*	Cc1ccc(S(=O)(=O)/C(C#N)=C/c2c(N3CCOCC3)nc3ccccn3c2=O)cc1
-11%	Cc1ccc(-c2cc(C(F)F)n3ncc(C(=O)Nc4c(C)nn(Cc5c(Cl)cccc5Cl)c4C)c3n2)cc1
-26%	COc1ccc(/C=C\c2onc(C)c2S(=O)(=O)N2CCC(C(=O)NCCC(C)C)CC2)cc1
-4%	CCc1ccccc1NC(=O)c1nnn(CC(=O)Nc2ccccc2C)c1N
-2%	Cc1nn(C(=O)CN2C(=O)c3ccccc3C2=O)c(C)c1Br
-15%	N#Cc1ccsc1NC(=O)COC(=O)CCCSc1nc2ccccc2s1
-21%	Cc1ccc(C(=O)NNC(=O)Cc2ccccc2)cc1
?	FC(F)(F)c1cc(-c2ccccc2)nc(NCc2cccs2)n1
32µM*	CC(=O)C1=C(C)NC(SCC(=O)c2ccc(Cl)cc2)=C(C#N)C1c1ccco1 (centres undefined)
-2%	CCOC(=O)c1cnc(SCC(=O)N2CCN(c3ccccc3)CC2)nc1N
-17%	Cc1cc(O)cc(O)c1C(=O)OC1(C)C(=O)C=C2C=C(/C=C/C(=O)O)OC=C2C1=O (centres undefined)
-20%	Cc1cc2ccccc2n1CCNC(=O)c1ccccc1
-10%	COc1ccccc1CC(=O)NC1CC(C)(C)NC(C)(C)C1
-5%&0%	CC(=O)OCC(COC(C)=O)OC(C)=O
-2%	O=C(O)CCC(=O)NNC(=O)c1ccc(-c2ccccc2)cc1
0%	O=C(CCC(=O)Nc1ccccc1)NNC(=O)C(c1ccccc1)c1ccccc1
-16%	CC(C)OC(=O)Cn1c(=O)sc2ccccc21
-5%	NC1CCN(O)C1=O (centres undefined)
-9%	CCN(CC)CCN1C(=O)C(O)=C(C(=O)c2cccs2)C1c1ccc(C)o1 (centres undefined)
?	CCN1CCN(CCCNC(=O)c2cn(CCOC)c(=O)c3c2c2ccccc2n3C)CC1

For convenience, four of the compounds above.
HPGD inh	structure
-16%	CC(C)OC(=O)Cn1c(=O)sc2ccccc21
-5%	NC1CCN(O)C1=O (centres undefined)
-9%	CCN(CC)CCN1C(=O)C(O)=C(C(=O)c2cccs2)C1c1ccc(C)o1 (centres undefined)
?	CCN1CCN(CCCNC(=O)c2cn(CCOC)c(=O)c3c2c2ccccc2n3C)CC1

Next section
HPGD inh	structure
-20%	COc1ccc([N+](=O)[O-])cc1C1NN=C(c2cccc3ccccc23)S1 (centres undefined)
-5%	Cc1ccc(-n2ncc(C(=O)O)c2C2CCN(C(=O)OC(C)(C)C)CC2)cc1
-12%	COc1ccccc1OCCCn1c(C)c(C#N)c2ccccc21
-4%	CCCCC(CC)C(=O)Nc1ccccc1C#N (centres undefined)
-6%	CCOC(=O)CNC(=O)CCNS(=O)(=O)c1ccc2c(c1)c(=O)n(C)c(=O)n2C
28µM*	Cc1ccc(C(=O)c2ccc(N3CCOCC3)c(F)c2)cc1
-4%	Cc1ccccc1NC(=O)c1cc(S(=O)(=O)N2CCOCC2)cs1
-13%	Cc1cc(/C=N/NC(=O)c2ccc(CN3CCOCC3)cc2)c(C)n1-c1ccccc1
3%	CC(=O)c1cccc(NC(=O)N2CCc3ccccc3C2)c1
-10%	COc1ccc(OC)c(NC(=O)Nc2ccc(Cl)cc2)c1
-9%	O=S(=O)(c1ccc(Cl)cc1)N1CCN(C(=S)Nc2ccc(F)c(Cl)c2)CC1
-6%	COc1ccc(CC(NC(C)=O)C(=O)NC2CCN(C(=O)Nc3ccc(C#N)cc3)CC2)cc1OC (centres undefined)
-6%	CC(=O)Nc1ccccc1O
-22%	Cc1ccc2sc(-c3ccc(NC(=O)CCN4C(=O)c5ccccc5C4=O)cc3)nc2c1
?	Cc1ccc(C2=NN(C)c3nc4ccccc4n3C2)cc1
1%	CCCCNc1cc(=O)n(C)c(=O)n1C
?	COc1ccc(C(=O)/C=C/Nc2cccc(C)n2)cc1OC
-12%	COc1ccc(CNC(=O)c2cnc3n(c2=O)CCS3)cc1
-5%	Cc1ccc(C(=O)c2ccc(C(F)(F)F)cc2)cc1
?	Cc1cc(-c2ccccc2)[nH]c(=O)c1S(=O)(=O)c1ccc(Cl)cc1
-1%	COc1ccc(C(C(=O)NC2CCCC2)N(CCN2CCOCC2)C(=O)c2ccc(OC)c(OC)c2)cc1 (centres undefined)
-14%	COc1ccc(C(=O)N2c3cc4c(cc3C(C)=CC2(C)C)OCO4)cc1
18µM*	CC1CN(c2nc3ccccn3c(=O)c2/C=C(\C#N)S(=O)(=O)c2ccccc2)CC(C)O1 (centres undefined)
1%	S=C1N(c2ccccc2)C(c2ccccc2)N2CCCN12 (centres undefined)
-8%	O=C(COc1ncnc2sccc12)Nc1ccc2c(c1)OCCO2
-12%	Cc1csc(NC(=O)CNC(=O)OCc2ccccc2)n1
-13%	CC(C)OC(=O)c1cc2c(ccn2C)n1CC(=O)N1CCC(Cc2ccccc2)CC1
-4%	CCN(CC)S(=O)(=O)c1cc(C(=O)OCC(=O)Nc2cccc(C)c2C)ccc1F
-8%	COc1ccc(/C=N/N2CCN(C)CC2)cc1OC
-14%	CCCC(=O)C1=C(O)C(C(=O)OC)C(C)(C)CC1=NC(C)(C)C (centres undefined)
-8%	CC1(C)C(N(O)C(=O)Nc2ccc(Cl)cc2)N(c2ccc(Cl)cc2)C(=O)N1CC(=O)NN (centres undefined)
-18%	COc1ccccc1CNC(=O)c1csc(Cc2ccc(Cl)cc2)n1
?	Cn1c(-c2ccc(C=O)s2)nc2c3ccccc3c3ccccc3c21
-13%	CC(C)C(=O)NCCc1nc2ccccc2n1C
-27%	CC(C)(C)c1cc2cccnc2n1Cc1cccc(F)c1
-8%	O=C(Nc1ccc(F)cc1)c1ccc(CSc2ccccc2)o1
28µM*	N#Cc1c(NC(=O)c2cc([N+](=O)[O-])ccc2N2CCOCC2)sc2c1CCCC2
-4%	Cc1ccc(-c2nc(C)sc2CC(=O)OCC(=O)Nc2cccc([N+](=O)[O-])c2)cc1
-6%	C=CCNC(=O)CSc1nnc(-c2ccncc2)n1CCc1ccccc1
16µM*	C=CCNC(=O)c1ccccc1Cl
-12%	O=C(CSc1n[nH]c(-c2ccncc2)n1)NCCc1ccccc1
-14%	CN(CCOC(=O)c1ccco1)Cc1ccccc1
-24%	CN1CCN(C(=O)c2cnn3c(C(F)F)cc(C4CC4)nc23)CC1
2%	C=CCn1c(SCC(=O)NCc2ccccc2)nnc1C1CCCCC1
-7%	N#Cc1ccc(C23CC4(C2)[C@H](CN(Cc2cccnc2)[C@@H]4c2ccccc2)C3c2ccc(C(F)(F)F)cc2)cc1 (some centres undefined)
13µM*!	CCN1/C(=C/C(C)=O)Sc2ccc(OC)cc21
-4%	Cc1ccc(C)c(OCCOCCN2CCOCC2)c1
-13%	N#Cc1ccc(COC(=O)Cn2nnc(-c3ccccc3)n2)cc1
-12%	O=C(N/N=C\c1cn[nH]c1-c1ccccc1)c1cccs1
-9%	CC(c1nc2ccccc2c(=O)[nH]1)N1CCN(C)CC1 (centres undefined)
-11%	COC(=O)c1cccc(NC(=O)/C=C/c2ccc([N+](=O)[O-])cc2)c1
-5%	O=C(O)CCC(=O)Nc1ccc(N2CCCCC2)c(C(=O)O)c1
-9%	COc1ccc(-c2noc(CN(C)S(=O)(=O)c3ccc(C)cc3)n2)cc1
-5%	CC(C)Cc1nnc(NC(=O)CCC(=O)Nc2ccc(F)cc2)s1
-14%	COc1ccccc1OCC(O)Cn1c(=N)n(CCN2CCCCC2)c2ccccc21 (centres undefined)
-10%	COc1ccc(Cl)cc1C(=O)n1nc(C)cc1C
?	COc1ccc(-c2nn(-c3ccccc3)cc2C(=O)Nc2nc(CC(C)=O)ns2)cc1
-6%	CC(C)(C)NS(=O)(=O)c1ccc(CCC(=O)Nc2ccc3c(c2)OCCO3)cc1
-6%	CC1(C)O[C@H]2[C@@H](O1)[C@@H](On1nnc3ccc(Cl)cc31)O[C@@H]2[C@@H]1COC(C)(C)O1
?	CCCCNc1ncnc2c1cnn2-c1ccc(Cl)cc1

Gathered by group, those above with a furan ring, fused or not.
HPGD inh	structure
-7%	CC1(C)CC(N(Cc2ccco2)C(=O)Cc2ccccc2)CCO1 (centres undefined)
0%	CCOc1ccc(CN(C(=O)c2ccco2)C2CCS(=O)(=O)C2)cc1 (centres undefined)
?	COc1cccc(Nc2nc(N)nc(-c3oc4ccccc4c3C)n2)c1
32µM*	CC(=O)C1=C(C)NC(SCC(=O)c2ccc(Cl)cc2)=C(C#N)C1c1ccco1 (centres undefined)
-9%	CCN(CC)CCN1C(=O)C(O)=C(C(=O)c2cccs2)C1c1ccc(C)o1 (centres undefined)
-8%	O=C(Nc1ccc(F)cc1)c1ccc(CSc2ccccc2)o1
-14%	CN(CCOC(=O)c1ccco1)Cc1ccccc1

(next part)
HPGD inh	structure
-16%	NC1(C(=O)O)CCCCC1
-3%	CCC(=O)Nc1ccc(N2CCN(Cc3ccccc3)CC2)cc1
?	O=C(Nc1ccc2nc(-c3cccs3)c(-c3cccs3)nc2c1)N1CCOCC1
-8%	COC(=O)C(C)Sc1nc2c(c(=O)n1-c1ccccc1)SCC2 (centres undefined)
-15%	Cc1cc(C)c(C(=O)COC(=O)[C@H](C)Nc2ccc(C(F)(F)F)cc2[N+](=O)[O-])c(C)c1
-22%	O=C(Nc1nccs1)c1cccc(N2C(=O)C3C4C=CC(C4)C3C2=O)c1 (centres undefined)
-3%	COc1ccc(N(CC(=O)NCc2cccc(OC)c2)S(=O)(=O)c2c(C)noc2C)cc1
